Bioassay records as filed in PubChem BioAssay.
HCMV NEC inh: cytomegalovirus nuclear egress complex inhibition; HTRF UL50-UL53 interaction, normalized percent inhibition; inhibition, % (no concentration beside the values); hit rate 0.15% among 190,000;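 active = both replicates at 50% or more, plus weaker picks with an unusually low signal ratio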;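 also: stock transfer was 100 nL into about 20 µL; 0% = negative control wells and 100% = wells with untagged competitor protein; inactives centre near -12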
* hit, by the source's call; & = joins results of further samples.

SMILES | HCMV NEC inh
CCCCC[C@H](O)/C=C/[C@@H]1[C@@H](C/C=C\CCCC(=O)O)[C@@H](O)C[C@H]1O (tested in a mixture with another compound) | -13
Cc1ccc(-c2nn(-c3ccccc3)cc2/C=N/O)o1 | -9
N#Cc1c(NC(=O)C2=COCCO2)sc2c1CCCC2 | 8&6
CN1CCN(Cc2oc(CO)cc(=O)c2O)CC1 | 2
O=C(COc1ccccc1)NC(Cc1ccccc1)C(=O)O (centres undefined) | 1
Fc1ccc(-c2nnc3ccc(SCc4ccccc4)nn23)cc1 | 7
OC(c1nc2ccccc2[nH]1)C(O)c1nc2ccccc2[nH]1 (centres undefined) | -2
CCOC(=O)COc1nc(-c2ccccc2)nc2ccccc12 | -6
CCc1nnc(NC(=O)CSc2nccn2-c2cc(C)cc(C)c2)s1 | 4
Cc1ccc(S(=O)(=O)Nc2ccc3oc(=O)sc3c2)c(C)c1 | -1
CNc1ccc2ccccc2c1SC | -27
COc1cc(C)c2c(=O)c(Oc3ccccc3)c(C)oc2c1 | -6
CCOC(=O)c1cc(C#N)c(Sc2ccc(C)cc2)nc1C(F)(F)F | -7
Cc1ccc(Sc2c(C)nn(C(=O)CNS(=O)(=O)c3ccccc3)c2C)cc1 | -5
CCc1ncc(C(=O)N2CCCC(Cn3cc(-c4ccccc4)nn3)C2)cn1 (centres undefined) | 2

Shown comma-delimited: entries from further up
canonical_smiles,HCMV NEC inh
N#Cc1c(NC(=O)C2=COCCO2)sc2c1CCCC2,8&6
CN1CCN(Cc2oc(CO)cc(=O)c2O)CC1,2

More results follow.
SMILES | HCMV NEC inh
Cc1nc2cc(C(=O)NCCN3CCOCC3)ccc2n1-c1ccc(F)cc1F | -19
COc1ccc(-c2nc(N)sc2-c2ccccc2)cc1 | -19
Cc1ccc(-c2nnco2)cc1 | -1&-13
CS(=O)c1ccc(-c2nc(-c3ccc(F)cc3)c(-c3ccncc3)[nH]2)cc1 (centres undefined) | 1&-20&-21&-23&-2&-2&-26&-25&-36&-52
CCCCC(C)(C)[C@H](O)/C=C/[C@@H]1[C@@H](C/C=C\CCCC(=O)O)[C@H](O)C[C@H]1O | -20&-20
N#Cc1ccc(OC(=O)c2ccc(Br)o2)cc1 | -7
O=C(CCc1ccccc1)Nc1nnc(-c2ccccc2)o1 | -1
CCC(=O)c1c[nH]c(C(=O)NCc2ccco2)c1 | 4
COc1ccccc1NC(=O)C1=C(C)NC(SCC(=O)c2ccccc2)=C(C#N)C1c1cccs1 (centres undefined) | 9
CC(C)(C)NC[C@H](O)COc1cccc2c1CCCC2=O | -27
CC(C)(C)c1ccc(-c2nc3ccccc3[nH]2)cc1 | 10
CCCc1cn(C2CCN(C(=O)CC3CC(C)(C)NC(C)(C)C3)CC2)nn1 | 1
Nc1cccc(-c2c[nH]c3ncc(-c4cccnc4)cc23)c1 | -15
O=C(Nc1cc(Cl)cc2c1[nH]c1cnccc12)c1cccnc1 | -18
CS(=O)(=O)c1ccc2nc(NC(=O)c3cccs3)sc2c1 | 4
O=c1nc2scc(CO)n2c2sc3c(c12)CCCC3 | -10
CCn1c(SCC(=O)O)nnc1-c1sc2cc(Cl)ccc2c1Cl | -1
CC(NC(=O)Cc1cc(F)cc(F)c1)C(=O)NC(C(=O)OC(C)(C)C)c1ccccc1 (centres undefined) | -5
Cc1nc2cc(C(F)(F)F)ccc2s1 | 4
Cc1sc[n+](Cc2ccccc2)c1C | 8
CC(C)c1ccc(NC(=O)N2CCCN(CCOc3ccccc3)CC2)cc1 | 28
Cn1c(=O)c2c(nc(CN(Cc3ccccc3)Cc3ccccc3)n2CCCO)n(C)c1=O | 8
O=C(c1cc2cc(Br)ccc2oc1=O)N1CCN(CCO)CC1 | -8
Cn1ncc2[nH]c(-c3cc(F)ccc3-n3cccn3)nc21 | -8
COc1ccccc1Nc1nc(-c2cc3cccc(OC)c3oc2=O)cs1 | -1
O=C(Nc1nnc(-c2ccc(Br)cc2)s1)C1CC1 | -1
O=C(COc1ccc(Cl)cc1)N1CCN(Cc2ccc3c(c2)OCO3)CC1 | -25
Cc1ccc(C(=O)Nc2c(-c3ccccc3)nc3scnn23)cc1 | -19
CC1=C(/C=C/C(=C/C=C/C(C)=C/C(=O)O)c2ccc(C)cc2)C(C)(C)CCC1 | -3
CCC1OC(=O)C(C)C(=O)C(C)C(OC2OC(C)CC(N(C)C)C2O)[C@](C)(OC)CC(C)C(=O)C(C)C2N(CCCCn3cnc(-c4cccnc4)c3)C(=O)O[C@]12C (some centres undefined) | -9

In the list so far, these contain a Cl atom.
SMILES | HCMV NEC inh
O=C(Nc1cc(Cl)cc2c1[nH]c1cnccc12)c1cccnc1 | -18
CCn1c(SCC(=O)O)nnc1-c1sc2cc(Cl)ccc2c1Cl | -1
O=C(COc1ccc(Cl)cc1)N1CCN(Cc2ccc3c(c2)OCO3)CC1 | -25

The results go on:
SMILES | HCMV NEC inh
CSc1ccccc1Nc1ncnc2c1cnn2-c1ccccc1 | 3
COc1cccc(CC(=O)NCc2ccc(Cl)s2)c1 | -1
O=C(C1CCCCCC1)N1CCCC(Cn2cc(-c3ccccn3)nn2)C1 (centres undefined) | 16
CCCCC/C=C/C=C1/C=CC(=O)[C@@H]1C/C=C\CCCC(=O)O | -17&-17
Cc1cc(C)nc(SCCS(=O)(=O)Cc2ccc(Cl)cc2)n1 | 1&1
CCCCn1c(C(C)O)nc2ccccc21 (centres undefined) | -14
Cn1c(CNC(=O)Cc2ccccc2)nc2ccccc21 | -17
COC(=O)c1cccnc1-c1nc2ccccc2s1 | -4
O=C(c1ccco1)N1CCN(S(=O)(=O)c2c(F)cccc2F)CC1 | -1
CC(=O)SC(CC(=O)O)c1nc2ccccc2s1 (centres undefined) | -21
CN1CCc2c(sc(NC(=O)c3ccc4ncsc4c3)c2C(N)=O)C1 | -39
CC(=O)N1CCCC(Cn2cnc3scc(-c4cc(C)ccc4C)c3c2=O)C1 (centres undefined) | 54&54
CC(NC(=O)Cc1cccs1)C(c1cccs1)N1CCOCC1 (centres undefined) | -16
COCCCCCCCCCCCC(=O)O | -4
Cc1ccccc1CN1C(=O)C(O)(CC(=O)c2ccc(N)cc2)c2ccccc21 (centres undefined) | 4
CS(=O)(=O)c1ccc(Cl)c(NC(=O)c2cccnc2)c1 | -9
Cc1[nH]nc(-c2ccc(O)cc2O)c1Oc1ccccc1 | -18
Cc1cc(C)nc(SCNC(=O)c2ccccc2)n1 | -12
CN(C)Cc1ccc(S(=O)(=O)n2ccc(C=CC(=O)NO)c2)cc1 | -17
O=C(O)c1ccc(C(=O)O)c(C(=O)c2ccccc2)c1 | -6
CC(C)n1cnc2c(Nc3cccc(F)c3)nc(NCCO)nc21 | -8
COc1cc(OC)c(C(=O)CCCCN2CCC3(CC2)NC(=O)NC3=O)cc1NS(=O)(=O)c1ccc(C(F)(F)F)cc1 | -2
CCOC(=O)/C=C(\C)Nc1ccc2cn[nH]c2c1 | 8
O=C1CSC(=Nc2ccccc2C(F)(F)F)N1 | -10
CCOC(=O)c1c(NC(=O)c2ccc(Cl)s2)sc(C)c1C | -8
CCc1ccc(OCC(O)CN2CCN(Cc3ccc4c(c3)OCO4)CC2)cc1 (centres undefined) | 0
COc1ccc(C(=O)OCc2nc3ccccc3s2)cc1OC | 2
CCN1CCc2c(sc(NC(=O)c3ccc4c(c3)CCCC4)c2C(N)=O)C1 | 3
COc1ccc2c(=O)c(-c3ccc4c(c3)OCCO4)coc2c1 | 4
CCCN(CCC)C(=O)c1cc2ccccc2cc1O | -18&-15

5 compounds drawn at random from those above, as already listed:
SMILES | HCMV NEC inh
CCc1ccc(OCC(O)CN2CCN(Cc3ccc4c(c3)OCO4)CC2)cc1 (centres undefined) | 0
CC(C)(C)NC[C@H](O)COc1cccc2c1CCCC2=O | -27
O=C(c1ccco1)N1CCN(S(=O)(=O)c2c(F)cccc2F)CC1 | -1
O=C(Nc1cc(Cl)cc2c1[nH]c1cnccc12)c1cccnc1 | -18
OC(c1nc2ccccc2[nH]1)C(O)c1nc2ccccc2[nH]1 (centres undefined) | -2

Next section.
SMILES | HCMV NEC inh
O=C(Cn1ccnc1)c1ccc(Cl)cc1Cl | -24
O=C(COC(=O)C1CCN(S(=O)(=O)c2ccc3ccccc3c2)CC1)c1ccccc1 | -17
NCCCn1cc(C2=C(c3c[nH]c4ccccc34)C(=O)NC2=O)c2ccccc21 | -92
COc1ccc(C(=O)Nc2sc3c(c2C#N)CCC3)cc1OC | -22
CCCSc1nnc(CSc2ncccn2)n1-c1ccccc1 | 6
Cc1cc(C)c(Nc2ccnc(Nc3ccc(C#N)cc3)n2)c(C)c1 | -13
COc1cc(F)c(-c2nc3c(cnn3Cc3cccs3)[nH]2)c(F)c1 | -19&-19
CCn1c(=NC(=O)C2CC2)sc2cc(Cl)ccc21 | 4
O=C1CN(c2ncnc3nc[nH]c23)CCN1Cc1cccc(F)c1 | 39&39
O=C(CSc1ncnc2ccccc12)N1CCc2ccccc21 | 7
C=CCNC(=O)c1ccc(Br)s1 | -15
CN1CCN(c2ncnc3scc(-c4ccc(F)cc4)c23)CC1 | -13
Cc1cccc(NC(=O)Cn2nnc3ccccc32)c1 | -12
CCCc1c(C(=O)N[C@H]2C[C@H]3C(=O)N[C@H](Cc4ccc(O)cc4)C(=O)N3C2)cnn1-c1ccccc1 | -14
OCc1nc(-c2ccccc2)n2ccccc12 | -77
Cc1ccc(NC(=O)CSC2=C(C#N)C(c3ccc(C)cc3)C3=C(CCCC3=O)N2)cc1 (centres undefined) | 4&-6
CCn1c(SCC(=O)OC)nnc1-c1c[nH]c2ccccc12 | -2
CC(C)(C)C(=O)NCc1nc2ccccc2n1Cc1ccccc1F | -3
CC(C)(C)n1nc2c(c1NC(=O)CC1CCCCC1)CS(=O)C2 (centres undefined) | -11
c1ccc(N2CCN(Cc3cn4cccnc4n3)CC2)cc1 | 1
COc1cc(OC)cc(C(=O)OCc2nc3ccccc3s2)c1 | -16
CC(O)c1nc2ccccc2n1CCC1CCCCC1 (centres undefined) | 2
Cc1[nH]c2ccccc2c1C(c1ccccn1)N1CCCCC1 (centres undefined) | 1
COc1ccc2cc(CCNC(=O)CCCc3ccccc3)c(=O)[nH]c2c1 | -20
O=C1NC(=O)C(=Cc2ccc(-c3ccc(F)cc3O)o2)S1 | 1&-25&-25&-41
CCOc1ccc(C2CC(=O)NC(SCC(=O)NC3CCCCC3)=C2C#N)cc1 (centres undefined) | -17
O=C(CCCN1C(=O)/C(=C/c2ccccc2)SC1=S)Nc1ccccc1O | -32
Cc1[nH]n(-c2ccccc2)c(=O)c1Sc1ccccc1 | 4
CCCC12CC3CC(CC(N)(C3)C1)C2 | -6
OCCCc1nc2ccccc2n1CCc1ccccc1 | -5

The closing 7 records of the section above open the next one:
SMILES | HCMV NEC inh
COc1ccc2cc(CCNC(=O)CCCc3ccccc3)c(=O)[nH]c2c1 | -20
O=C1NC(=O)C(=Cc2ccc(-c3ccc(F)cc3O)o2)S1 | 1&-25&-25&-41
CCOc1ccc(C2CC(=O)NC(SCC(=O)NC3CCCCC3)=C2C#N)cc1 (centres undefined) | -17
O=C(CCCN1C(=O)/C(=C/c2ccccc2)SC1=S)Nc1ccccc1O | -32
Cc1[nH]n(-c2ccccc2)c(=O)c1Sc1ccccc1 | 4
CCCC12CC3CC(CC(N)(C3)C1)C2 | -6
OCCCc1nc2ccccc2n1CCc1ccccc1 | -5
CCOC(=O)c1c(C)oc2c1c(C=NCC1CCCO1)c(O)c1ccccc12 (centres undefined) | 5
CCCC(CCC)N[C@H](CO)Cc1ccccc1 | 6
CCCc1cn(CC2CCN(C(=O)[C@@H](N)[C@@H](C)CC)CC2)nn1 | -6
COc1ccc2cc(S(=O)(=O)N3CCN(Cc4ccccc4)CC3)ccc2c1 | -1
O=C(/C=C/c1cccs1)Nc1nc2ccc(Br)cc2s1 | -20
CCCCC[C@H](O)/C=C/[C@H]1C(=O)C[C@H](O)[C@@H]1C/C=C\CCCC(=O)OCC(O)CO (some centres undefined) | -2&-2
Cc1csc(-c2nnc(Nc3ccc(Oc4ncccc4-c4ccnc(N)n4)cc3)c3ccccc23)c1 | -12
Cc1c(C(F)(F)F)nc(-c2ccc(CN3CCN(C)C(=O)C3)cc2)[nH]c1=O | -15
O=S(=O)(c1ccc(Cl)cc1)N1CCSC1c1ccco1 (centres undefined) | -14
Cc1ccsc1C1CC(=O)NC(SCC(=O)OCc2ccccc2)=C1C#N (centres undefined) | 9
C=CC(=O)Nc1cc(Nc2nccc(-c3cn(C)c4ccccc34)n2)c(OC)cc1N(C)CCN(C)C | 15
CNC(=O)c1cc(Br)c(C)c(C)c1C | -18
O=C(O)C1CCN(S(=O)(=O)c2ccccc2)CC1 | -25
CC12CCC(C(=O)N3CCN(Cc4ccccc4)CC3)(OC1=O)C2(C)C (centres undefined) | -2
CC(C)CN1CCC(CNCc2ccc(C#CC(C)(C)O)s2)CC1 | -15
CCCCCCCCCCC1=C(C)C(=O)C(OC)=C(OC)C1=O | 10
COc1ccccc1NC(=O)c1cc2ccccc2oc1=N | 6
COc1ccc(-c2nc3c(C#N)cnn3cc2C)cc1F | -6
COC(=O)c1c(NC(=O)c2ccc(Cl)s2)sc2c1CCC2 | -11
CC1=[N+](S(=O)(=O)c2ccc(Cl)cc2)CCN1 | 0
Cc1ccc2c(C(=O)N3CCCCC3)cc(-c3cnn(C(C)C)c3)nc2c1 | -37
CCCCC/C=C\C/C=C\C/C=C\C/C=C\CCCC(=O)Oc1ccc2ccc(=O)oc2c1 | -21&-21
CC(=O)Nc1ccc2nc(NC(=O)c3cccs3)sc2c1 | -15
O=C1CC(c2nc3ccccc3[nH]2)CN1Cc1ccccc1 (centres undefined) | -7
COc1ccc(C(=O)Oc2ccc(Cl)c3cccnc23)cc1OC | 1
CCCCC[C@H](O)CC(=O)CCc1ccc(O)c(OC)c1 | -13
CN1CCN(c2nnc(-c3ccccc3)c3ccccc23)CC1 | -8

A portion of the library, so the mix of outcomes need not match the whole.
